# Arbovirus anti: antivirals against arbovirus infection | arbovirus infection cell-based antiviral screen | inhibition, % at 10 µM | 200,000 tested, 0.37% active | AID 1251;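 active = inhibition from about 30%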;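 note: bluetongue infection of BSR cells; cell survival read as ATP light after 72 h; 0% = infected wells without compound and 100% = uninfected wells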
# Mtb H37Rv: M. tuberculosis H37Rv growth inhibitors, H37Rv strain (AID 1626) | M. tuberculosis H37Rv growth inhibition; higher % means a stronger effect | 220,000 tested, 0.95% active | one-dose inhibition, % at 10 µM; IC50 in µM for titrated hits;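 active = confirmed in a dose series; inconclusive = inhibition above 80% but not taken into the dose series; inactive = below 80% or under 30% at every dose of the series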;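 note: bacteria incubated seven days before Alamar blue readout; 0% = bacteria only wells and 100% = bacteria with antibiotic wells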
# RecA splice inh: inhibitors of M. tuberculosis RecA intein splicing; inhibition, %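 (about 9 µM by stock and volumes)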; cell-free RecA intein splicing, fluorescence; 290,000 tested, 0.75% active; P9WHJ3; AID 2221; in the data active = inhibition above about 30%; inconclusive = no clear call, values can overlap the other calls;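 note: 0% = vehicle wells and 100% = reference inhibitor control wells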
# Target sequence (P9WHJ3 whole entry, looked up, canonical isoform): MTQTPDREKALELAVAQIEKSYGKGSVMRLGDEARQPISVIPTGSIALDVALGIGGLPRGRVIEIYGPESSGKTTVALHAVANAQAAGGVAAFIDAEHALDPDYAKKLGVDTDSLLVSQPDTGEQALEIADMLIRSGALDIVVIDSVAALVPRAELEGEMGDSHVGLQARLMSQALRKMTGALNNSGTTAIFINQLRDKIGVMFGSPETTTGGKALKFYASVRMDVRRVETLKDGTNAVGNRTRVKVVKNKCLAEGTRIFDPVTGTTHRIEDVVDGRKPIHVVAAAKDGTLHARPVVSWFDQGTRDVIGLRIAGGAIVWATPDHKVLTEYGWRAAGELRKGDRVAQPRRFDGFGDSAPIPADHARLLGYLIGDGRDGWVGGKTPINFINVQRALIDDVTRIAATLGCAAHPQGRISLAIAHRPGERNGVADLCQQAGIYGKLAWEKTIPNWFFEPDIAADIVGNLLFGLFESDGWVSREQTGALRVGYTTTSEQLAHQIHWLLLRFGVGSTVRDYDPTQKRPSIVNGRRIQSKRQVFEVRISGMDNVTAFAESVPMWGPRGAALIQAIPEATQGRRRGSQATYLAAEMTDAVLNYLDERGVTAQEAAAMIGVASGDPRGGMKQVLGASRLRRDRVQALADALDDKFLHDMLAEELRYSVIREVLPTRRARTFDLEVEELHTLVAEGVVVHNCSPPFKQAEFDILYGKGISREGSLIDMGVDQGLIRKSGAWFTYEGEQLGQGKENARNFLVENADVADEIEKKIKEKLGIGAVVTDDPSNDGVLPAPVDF
# YopH PTP inh: blocks Yersinia enterocolitica YopH tyrosine phosphatase. inhibition, %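 (about 10 µM by stock and volumes)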. fluorescence Ex485/Em525. 140,000 tested, 0.16% active. AID 898;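 active = inhibition of 50% or more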;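 note: controls were vehicle for no effect and minimum signal wells for full effect; inactives centre near -20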
# Mtb bLac sens: beta-lactam sensitization of Mtb H37Rv; M. tuberculosis H37Rv growth with meropenem, percent inhibition; hits of this screen are not shown here; 330,000 tested, 0.27% active; AID 434955; inhibition, % at 25 µM;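 active = about 74% or more and at least 40 points above the plate without the antibiotic, then above 30% in a dose series; inconclusive = first-round hits that could not be retested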;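 note: growth measured after seven days incubation then overnight dye step; 0% = bacteria only wells and 100% = bacteria with antibiotic; twin plates without the antibiotic show which effects depend on it; some results filed as inactive read as strong as hits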
# Arbovirus anti repeat: also measured in Arbovirus anti; calls as there; inhibition, %; measured here: 10K subset replicate screen; many hits read low in the repeat;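 first of two repeat runs on a subset; 0% = infected and 100% = uninfected wells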
# An asterisk follows results filed as active; ? = inconclusive; . = not tested or not shown. Not all compounds are listed. The share of hits here may be higher or lower than overall.
SMILES,Arbovirus anti,Mtb H37Rv,RecA splice inh,YopH PTP inh,Mtb bLac sens,others
Cc1c(CC(=O)N2CCN(C(=O)C3COc4ccccc4O3)CC2)c(=O)oc2cc(O)ccc12 (centres undefined),.,.,-22,.,4,
O=C(NCC1CCCO1)c1ccc2c(c1)N(Cc1ccccc1)CCS2 (centres undefined),.,.,-6.1,.,4,
O=P(Cc1ccccn1)(c1ccccc1)c1ccccc1,2,0%,1.0,13,-6,
CCOC(=O)Cn1cc(C(=O)c2cccs2)c2ccccc21,1,9%,-1.1,-22,93,
N#CCCn1cc(C(=O)Nc2ccccn2)c(-c2ccccc2)n1,.,.,-1.6,.,0,
CCn1cc(C(=O)Nc2ccc(C)c([N+](=O)[O-])c2)cn1,2,-1%,-2.4,-2,1,
O=S(=O)(Nc1cccnc1)c1cccs1,-2,-4%,1.6,-42,1,
CCn1c(O)c(N=NC(=O)CNC(=O)c2ccco2)c2ccccc21,-8,-6%,0.1,-22,-6,
CC1CCc2nc(NC(=O)C3CC3)sc2C1 (centres undefined),10,7%,-2.8,-40,12,
O=C(O)C1C(C(=O)O)C1(c1ccccc1)c1ccccc1 (centres undefined),.,-1%,-2.2,.,-4,
Cc1ccc(S(=O)(=O)CCC(=O)OCC(=O)N2CCN(c3ccccc3)CC2)cc1,.,.,-1.4,.,-5,
COc1cccc(CNC(=O)CCc2nc3cc(S(=O)(=O)N4CCOCC4)ccc3n2C)c1,.,.,-1.0,.,-4,
Cc1cccc(NC(=O)c2ccc(NC(C)c3ccccc3)c([N+](=O)[O-])c2)n1 (centres undefined),-4,-1%,-2.4,.,0,
O=c1c2ccccc2nc(CSc2ncnc3nc[nH]c23)n1-c1cccc(C(F)(F)F)c1,-2,-1%,-23,8,-8,
COc1cc(C(C)=O)ccc1OCC(O)CNCC1(N2CCCCC2)CCCCC1 (centres undefined),-2,-5%,3.5,-13,5,
O=C(COc1cccc(Oc2ccccc2)c1)Nc1ncccn1,4,2%,0.2,-44,97,
CCc1cccc(NC(=O)Cc2ccc(OC)c(OC)c2)c1,8,5%,-0.2,-18,8,
O=C(COc1ccc(S(=O)(=O)N2CCOCC2)cc1)Nc1ccc2c(c1)OCCO2,2,-2%,-1.9,1,2,
COc1ccc(C2c3c(-c4ccccc4O)n[nH]c3C(=O)N2CCc2ccc(OC)c(OC)c2)cc1 (centres undefined),-22,1%,23,-38,-6,
O=C(NCCc1c[nH]c2ccccc12)c1cnc2sccn2c1=O,0,-7%,-3.2,-34,0,
COc1ccc(-c2cc(C(=O)Nc3cccc(Cl)c3)no2)cc1,.,.,0.5,.,14,
COC(=O)c1ccccc1NS(=O)(=O)c1ccc2c(c1)oc(=O)n2C,.,.,-5.7,.,-4,
Cc1nc(NC(=O)CSC2=NCCS2)sc1C(=O)N(C)C,.,.,2.3,.,-18,
CCCCn1c(=O)c(F)cn(Cc2ccc(OC)c([N+](=O)[O-])c2)c1=O,5,4%,-2.4,7,-3,
CC(C)CCNCC(=O)NC(c1ccccc1)c1ccccc1,-1,-6%,-4.3,.,-22,
O=C1CCCC/C1=N\Nc1ccc(OCc2ccccc2)cc1,-30,44%,2.7,-5,30,
C=CCN(c1nc(C)c(Br)c(OC)n1)S(=O)(=O)c1ccc(C)cc1,.,.,11,.,5,
COc1cc(OC)c2c(c1)OC(c1ccc(OC)c(OC)c1)C(O)C2=O (centres undefined),6,2%,-2.2,-27,-3,Arbovirus anti repeat=9
NNC(=O)c1ncoc1-c1ccc(Cl)cc1,.,41%,2.4,.,94,
COc1ccc(NS(=O)(=O)c2ccc(OC)c3ccccc23)cn1,5,.,3.1,-40,-3,
Cc1ccc(C2(COC(=O)C(C)C)CO2)c(OC(=O)C(C)C)c1 (centres undefined),.,?,-2.0,.,-2,
COC(=O)c1ccccc1Nc1cc(C)nc2nc(C)nn12,-3,.,0.8,-31,1,Arbovirus anti repeat=-2
COc1cccc(CN(C)C(=O)CSC(C)C(=O)Nc2cc(C)on2)c1OC (centres undefined),.,.,-2.0,.,2,
CC(C)[C@H](NC(=O)c1ccccc1)C(=O)OCC(=O)Nc1ccc2c(c1)OCCO2,-2,-5%,-2.7,-41,-4,
CC1(C)CN(c2ccccc2)N(C(=O)c2ccc(C#N)cc2)C1=O,-36,.,5.8,-19,96,
COC(=O)c1sccc1NC(=O)CC1C(=O)NCCN1C(=O)c1ccccc1 (centres undefined),.,0%,-2.3,.,-9,
CCOC(=O)N1CCN(C(=O)/C(=C/c2ccc(Br)cc2)NC(=O)c2ccc(OC)cc2)CC1,7,0%,-5.2,-25,6,
Cc1ccc(OCCNS(=O)(=O)c2ccc(N3CCCC3=O)cc2)cc1,6,5%,-1.6,-14,-4,
Cc1ccc(S(=O)(=O)N2CCCCC2)cc1C(=O)Nc1cccnc1,.,-9%,4.0,.,-9,
Cc1cc(C(=O)NNc2ccc(Cl)cc2)no1,.,68%,.,.,97,
O=C(COC(=O)CNC(=O)c1ccc(Cl)cc1Cl)NC(=O)NCc1ccccc1,.,.,2.5,.,-11,
Cc1c(OCC(=O)NC(Cc2c[nH]c3ccc(O)cc23)C(=O)O)ccc2c3c(c(=O)oc12)CCC3 (centres undefined),.,-12%,-6.6,.,-3,
CC12CCC(C/C1=N/NC(=O)Nc1ccccc1)C2(C)C (centres undefined),-7,-1%,-3.8,.,.,
O=C(NC1CCCC1)c1cc2nc(-c3ccccc3)cc(-c3ccccc3)n2n1,.,27%,-2.0,.,6,
COc1ccccc1C(C)N(C)Cc1nc(COc2ccccc2)no1 (centres undefined),-2,-3%,-1.4,.,3,
Cc1cc(C)nc(N(C#N)Cc2ccc([N+](=O)[O-])cc2)n1,-2,-4%,0.8,.,-7,
COc1ccc(-c2nnc(Nc3ccc(OC)c(C(=O)N4CCCCC4)c3)c3ccccc23)cc1,-15,17%,13,-19,1,
COc1ccc(OC)c(N=CC2=C(O)CC(C)(C)CC2=O)c1,3,17%,-2.7,-28,25,
O=S(=O)(c1ccccc1)N1CCN(C/C=C/c2ccccc2)CC1,.,.,7.3,.,2,
O=C(c1cncc(Br)c1)N1CCN(c2ccc([N+](=O)[O-])cc2)CC1,-4,-1%,1.9,-17,-10,
Cc1ccc(S(=O)(=O)N2CCCC(c3nnc4n3-c3ccccc3SC4)C2)cc1 (centres undefined),-5,1%,5.7,-10,-13,
COc1ccc2c(c1OC)c(=O)n1c3ccc(OC(C)C(=O)NCCN4CCOCC4)cc3c3ccnc2c31 (centres undefined),.,.,-174,.,2,
CCc1[nH]nc2c1C(C1C=CCCC1)C(C#N)=C(N)O2 (centres undefined),-15,3%,3.8,.,-4,
CCc1cc2c(NC(Cc3c[nH]c4ccccc34)C(=O)O)nc(C)nc2s1 (centres undefined),7,-8%,-2.0,-40,-8,
O=S(=O)(c1cccc(-c2csc(-c3ccccc3)n2)c1)N1CCOCC1,-2,1%,.,-20,4,
Cc1ccc(N(C(=O)c2snc(C(N)=O)c2N)C(C(=O)NCCC(C)C)c2ccco2)cc1 (centres undefined),-20,17%,5.4,.,-8,
CCOC(=O)c1c(-n2c(C)cc(/C=C3/C(=O)NC(=O)N(CC)C3=O)c2C)sc2c1CCCC2,.,4%,-6.5,-35,5,
CC(=O)Nc1ccc(S(=O)(=O)Nc2ccc(N3CCOCC3)c(F)c2)cc1,-4,-2%,-2.7,-22,-7,
COC(=O)C(C)SC1=N/C(=C/c2ccc(-n3cncn3)cc2)C(=O)N1 (centres undefined),.,.,0.6,.,4,
COC(=O)C1=C(C)N(CCCC(=O)O)C(=O)NC1c1ccccc1Cl (centres undefined),.,-10%,-1.3,.,9,

# Random excerpt: 5 entries already listed, in no set order.
SMILES,Arbovirus anti,Mtb H37Rv,RecA splice inh,YopH PTP inh,Mtb bLac sens,others
CCc1[nH]nc2c1C(C1C=CCCC1)C(C#N)=C(N)O2 (centres undefined),-15,3%,3.8,.,-4,
COC(=O)C(C)SC1=N/C(=C/c2ccc(-n3cncn3)cc2)C(=O)N1 (centres undefined),.,.,0.6,.,4,
O=C(c1cncc(Br)c1)N1CCN(c2ccc([N+](=O)[O-])cc2)CC1,-4,-1%,1.9,-17,-10,
CCc1cc2c(NC(Cc3c[nH]c4ccccc34)C(=O)O)nc(C)nc2s1 (centres undefined),7,-8%,-2.0,-40,-8,
CC(=O)Nc1ccc(S(=O)(=O)Nc2ccc(N3CCOCC3)c(F)c2)cc1,-4,-2%,-2.7,-22,-7,

# 5 compounds out of the list, ordered by length of the SMILES, lowest first.
SMILES,Arbovirus anti,Mtb H37Rv,RecA splice inh,YopH PTP inh,Mtb bLac sens,others
O=S(=O)(c1ccccc1)N1CCN(C/C=C/c2ccccc2)CC1,.,.,7.3,.,2,
COC(=O)C1=C(C)N(CCCC(=O)O)C(=O)NC1c1ccccc1Cl (centres undefined),.,-10%,-1.3,.,9,
CCc1cc2c(NC(Cc3c[nH]c4ccccc34)C(=O)O)nc(C)nc2s1 (centres undefined),7,-8%,-2.0,-40,-8,
COC(=O)C(C)SC1=N/C(=C/c2ccc(-n3cncn3)cc2)C(=O)N1 (centres undefined),.,.,0.6,.,4,
CCOC(=O)c1c(-n2c(C)cc(/C=C3/C(=O)NC(=O)N(CC)C3=O)c2C)sc2c1CCCC2,.,4%,-6.5,-35,5,

# Next section:
SMILES,Arbovirus anti,Mtb H37Rv,RecA splice inh,YopH PTP inh,Mtb bLac sens,others
Cc1cccn2c(=O)c3cc(C(=O)NCc4ccco4)c(=N)n(C4CCCC4)c3nc12,.,.,-61,.,2,
O=C(NCCCn1ccnc1)C(=O)NCc1ccccc1,-13,-9%,0.1,-31,-2,
CC(C)C(OC(=O)C1CCCO1)C(=O)NC1CCCC1 (centres undefined),0,-6%,-0.9,-36,-11,
O=C1CC(C(F)(F)F)=NN1,.,-6%,.,.,-13,
CC1CCN(S(=O)(=O)c2ccc(C(=O)OC(C)C(=O)NC3CCCCC3C)cc2)CC1 (centres undefined),.,.,-1.6,.,-8,
CC(=O)NC(CC(=O)N(C)Cc1c(F)cccc1Cl)c1ccccc1 (centres undefined),-8,1%,-0.9,.,-3,
Cc1ccsc1C(=O)OC1CCOC1=O (centres undefined),2,.,-0.7,1,-2,
COc1ccc(/C=N/Nc2cc(C)nc3ccccc23)cc1,.,.,-7.1,.,99,
COc1ccc(C(=O)N2CC3(CC(c4cccc(NC(=O)CC(c5ccccc5)c5ccccc5)c4)=NO3)C[C@H]2C(N)=O)cc1 (some centres undefined),.,4%,8.8,.,92,
COc1ccccc1C(=O)N1CCN(CCc2ccccc2)CC1,2,0%,0.7,2,-5,
COC(=O)C(CC(C)C)NC(=O)CSc1nc(-c2ccccc2)c(C#N)c(=O)[nH]1 (centres undefined),5,15%,2.5,-6,3,
CCOc1ccccc1C(=O)NC1CC2CCCC(C1)N2Cc1nnnn1Cc1ccco1 (centres undefined),0,-2%,2.2,-34,-7,
O=S(=O)(c1ccc(N2CCCCCC2)nc1)N1CCCC1,21,-2%,0.4,.,-3,
Cn1cc(-c2cccc(Cl)c2)cc(C#N)c1=O,-2,-6%,1.4,.,3,
Nc1cc(-c2ccccc2)nn1Cc1ccc(Cl)cc1,3,-2%,17,-7,-9,
CCOC(=O)c1c(C)nsc1NCc1ccccc1,.,.,4.7,.,0,
O=C(CSCc1ccccc1)Nc1cccc(C(=O)Nc2ccccc2C(=O)O)c1,31*,-7%,3.7,-39,-9,
CCOC(=O)C1=C(CS(=O)(=O)c2ccc(Cl)cc2)NC(=O)NC1c1ccc(O)c(OC)c1 (centres undefined),.,.,-3.0,.,-3,
Cc1ccc(N=C2NC(=O)c3cccc([N+](=O)[O-])c32)cc1,3,-4%,-5.8,-12,1,
C=COCCn1c(C)c(C(=O)OCC)c2cc(O)ccc21,0,1%,0.9,7,-16,
O=C1c2ccccc2NC(c2ccccc2O)N1NS(=O)(=O)c1ccccc1 (centres undefined),-1,2%,-6.8,.,1,
COC(=O)c1cc2c(N)c(C(=O)c3ccc(Cl)cc3)sc2nc1C(OC)OC,.,-7%,-85,.,4,
CCN(Cc1ccc(NC(C)=O)cc1)CC1CCCN(CCc2cccc(OC)c2)C1 (centres undefined),.,.,-1.7,.,-5,
